# SARS PLP yeast = inhibitors of SARS-CoV papain-like protease in yeast; Potency, µM (series often up to 32.9 µM), inactives show top-dose activity, positive = growth rescue; S. cerevisiae expressing SARS-CoV PLpro, growth rescue; control for the full effect not named in the record; actives 0.19% (n = 330,000); also: 0% is about no effect; nearly all actives have a fitted effect of over 55% in size; growth read by luminescence after 48 h
# 2A StopGo = FMDV 2A StopGo reporter, luciferase signal; AID 1159524; Potency, µM (doses to about 57.9 µM), without a hit: at the top dose signal change, negative = less light; human cells with a luciferase reporter of 2A StopGo recoding; control for the full effect not named in the record; actives 1.2% (n = 410,000); active = well fitted falling curve with a large enough effect; inconclusive = small, poorly fitted or top-dose-only effect; inactive = no such curve, though single readings can be large or run the other way; tested in HEK293T cells; also: % is scaled to controls: 0 for no effect and ±100 for the full control effect; nearly all actives have a fitted effect of over 45% in size; luciferase light after 4 h
# LASV entry inh = inhibitors of Lassa virus binding or cell entry; Potency, µM (series often up to 37.9 µM), inactives show at the top dose activity change, negative = inhibition, most hits filed as inhibitors; Lassa virus pseudotype entry inhibition, cell reporter; control for the full effect not named in the record; actives 1.2% (n = 300,000); active means well fitted inhibition curve with a large enough effect; inconclusive means small, poorly fitted or top-dose-only effect, or effect the other way; inactive means flat fitted curve, though single readings scatter; tested in HEK293 cells; also: % is scaled to controls: 0 for no effect and ±100 for the full control effect; nearly all actives have a fitted effect of over 50% in size; luciferase read-out
# Cruzain noTriton = inhibitors of Trypanosoma cruzi cruzain without detergent. P25779. purified cruzain, Z-FR-AMC fluorescence, no detergent. Potency, µM, without a hit: max response, negative = inhibition, actives largely listed as inhibitors. actives 2.3% (n = 200,000). AID 1476; active = well fitted curve in the direction sought with a large enough effect; inconclusive = small, poorly fitted or top-dose-only effect, or another doubt; inactive = no such curve, though single readings can be large; an effect the other way counts as inactive or inconclusive;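 also: plate controls were enzyme without inhibitor for no effect and buffer without enzyme for full effect; nearly all actives have a fitted effect of over 40% in size; top concentration of the series not given in the record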
# Target sequence (P25779 123-467 limits assumed): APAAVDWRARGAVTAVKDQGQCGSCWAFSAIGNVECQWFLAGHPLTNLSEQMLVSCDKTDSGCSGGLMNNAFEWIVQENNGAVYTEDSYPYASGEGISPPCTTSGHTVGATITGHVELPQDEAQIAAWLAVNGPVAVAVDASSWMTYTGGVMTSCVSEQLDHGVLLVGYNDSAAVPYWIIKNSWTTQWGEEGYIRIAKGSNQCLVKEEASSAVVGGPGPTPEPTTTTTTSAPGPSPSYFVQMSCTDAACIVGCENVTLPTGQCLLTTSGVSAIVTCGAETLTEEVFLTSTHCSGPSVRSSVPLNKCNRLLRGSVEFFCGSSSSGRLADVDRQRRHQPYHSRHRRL
#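 Purified cruzain at 1.5 nM, pre-incubated 15 min with compound at room temperature in 100 mM sodium acetate pH 5.5, 5 mM DTT, 0.00005% Triton X-100. Reaction started with 2 uM Z-FR-AMC; AMC fluorescence increase over 60 s gives rate.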
# Cruzain inh Det = cruzain (T. cruzi) inhibition with detergent; P25779; purified cruzain, Z-FR-AMC fluorescence, 0.01% Triton; Potency, µM, without a hit: max response, negative = inhibition, usual class: inhibitors; actives 0.43% (n = 200,000); AID 1478; active = well fitted curve in the direction sought with a large enough effect; inconclusive = small, poorly fitted or top-dose-only effect, or another doubt; inactive = no such curve, though single readings can be large; an effect the other way counts as inactive or inconclusive;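 also: plate controls were neutral wells for no effect and buffer without enzyme for full effect; nearly all actives have a fitted effect of over 40% in size; top concentration of the series not given in the record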
#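 Detergent-containing arm of a paired screen for aggregation-based inhibition: 0.01% Triton X-100 present. Cruzain at 1.5 nM cleaved 2 uM Z-FR-AMC at pH 5.5 with 5 mM DTT; AMC fluorescence gain over 60 s measured activity.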
# NS1 function inh = influenza NS1 inhibition | actives 0.4% (n = 270,000) | S. cerevisiae slowed by influenza A NS1, growth recovery by OD600 | Potency, µM (top dose mostly 46.1 µM), for the others: at the top dose activity, positive = more growth | AID 2326; also: actives are rising curves; nearly all actives have a fitted effect of over 50% in size
#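 S. cerevisiae expressing influenza A NS1, grown in glucose, washed, then diluted 1:100 into pH 6.0 -URA galactose medium with 23 nl compound. Growth recovery read as OD600; NS1-free strain serves as control.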
# Marburg entry inh = Marburg virus entry inhibition; Marburg virus pseudotyped entry inhibition, cell reporter; control for the full effect not named in the record; about a third of the inactives were read at about 46 µM; Potency, µM (titrated, usually from 37.8 µM), for inactives: at the top dose activity change, negative = inhibition, usual class: inhibitors; actives 1.8% (n = 300,000); AID 540276; active = well fitted inhibition curve with a large enough effect; inconclusive = small, poorly fitted or top-dose-only effect, or effect the other way; inactive = flat fitted curve, though single readings scatter; tested in HEK293 cells; about a fifth of its hits are not listed in these tables; also: % is scaled to controls: 0 for no effect and ±100 for the full control effect; luciferase read-out
# RE007 growth inh = less growth of the S. pombe RE007 Vpr strain | actives 0.21% (n = 360,000) | S. pombe RE007 Vpr strain, BacTiter-Glo ATP luminescence, 24 h; control for the full effect not named in the record | Potency, µM (highest dose often 92.2 µM), for the others: top-dose activity change, negative = less growth; active = well fitted falling curve with a large enough effect; inconclusive = small, poorly fitted or top-dose-only effect; inactive = no such curve, though single readings can be large or run the other way;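 also: % is scaled to controls: 0 for no effect and ±100 for the full control effect; nearly all actives have a fitted effect of over 50% in size; the assay follows cell death caused by Vpr and the record does not say whether a fall means rescue or toxicity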
#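 Fission yeast strain RE007, carrying one chromosomally integrated HIV-1 vpr copy, was seeded at OD 0.01 in PMG+AL medium with 23 nL pinned compound. After 24 h at 30 °C and 99% humidity, viability was read by BacTiter-Glo luminescence.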
# * = called active by the depositor; ? = inconclusive; . = not tested or not shown; & = joins results of further samples; [ ] = remark or other dose. Unless noted, calls follow the shape of the dose curve; as a rule, active means well fitted rising curve with a large enough effect; inconclusive means small, poorly fitted or top-dose-only effect; inactive means no such curve, though single readings can be large or run the other way. Potency is read from the fitted curve at half-maximal effect. Hits appear at their usual frequency; overall some 4.6% were active at least once.
SMILES,SARS PLP yeast,2A StopGo,LASV entry inh,Cruzain noTriton,Cruzain inh Det,NS1 function inh,Marburg entry inh,RE007 growth inh
CCOCCCNC(=S)N1C2CCC1CC(NC(=O)Nc1ccc(C(=O)OCC)cc1)C2 (stereo not given),0%,0%,5%,.,.,1%,-4%[46.1 µM],0%
COC(=O)C1=C(C)OC(N)=C(C#N)C1c1cc(OC)ccc1OC (stereo not given),?,.,14%,8%,-2.0%,-3%,-3%,-6%
Cc1ccc(NC(=O)C2=C(c3ccccc3)S(=O)(=O)CCS2(=O)=O)cc1,6%,25µM*,?,.,.,.,?,2%
CC1CCC(C(C)C)C(OCC(O)CN2CCOCC2)C1 (stereo not given),-5%,.,9%,1%,3.9%,1%,?,-10%
Cc1nc(-c2nnc(SCC(=O)Nc3cc(C(F)(F)F)cc(C(F)(F)F)c3)n2C)cs1,0%,-19%,.,.,.,3%,.,-7%
O=C(COc1ccc2c(C(F)(F)F)cc(=O)oc2c1)NCc1cccs1,4%,-17%,28%,-15%,-1.0%,-6%,-4%,0%
Cc1ccc(N2CC(=O)Nc3c(sc4nc(C)cc(C)c34)C2=O)cc1,1%,-18%,14%[46.1 µM],.,.,-8%,?,-12%
Cc1n[nH]c(=O)c2c(NC(=O)COC(=O)c3cc(F)cc(F)c3)oc(C)c12,2%,4%,1%,.,.,.,6%[46.1 µM],-13%
O=C(Nc1ccc(F)c(F)c1)c1ccc(F)c(S(=O)(=O)N2CCC3(CC2)OCCO3)c1,2%,?,?,11%,-0.1%,.,?,3%
O=C(NN=C1C2CC3CC(C2)CC1C3)c1cccc(S(=O)(=O)N2CCOCC2)c1,-11%,0%,0%,-6%,0.3%,14%,-1%,-1%
CCSc1nc(-c2ccccc2)c2cc(Cl)ccc2n1,-12%,-12%,0%,-9%,-5.5%,11%,0%,-1%
CCN(CC)c1nc(-c2ccccn2)nc(-c2ccccc2)c1C#N,12%,?,?,.,.,.,6.3µM*,26%
CN(C)CCC1(C2=CCCC2)CC/C(=C/c2ccc(Cl)cc2)C1=O (stereo not given),.,-22%,13µM*,.,.,.,?,2%
Cc1ccc2c(CC(=O)Nc3ccc(S(=O)(=O)N4CCCCC4)cc3)coc2c1,.,36%[activator],0%[46.1 µM],25µM*,-6.9%,.,17%[46.1 µM],.
COc1ccccc1N1CCN(C(=O)Cn2cnc3c2c(=O)n(C)c(=O)n3C)CC1,1%,-16%,-6%,.,.,4%,14%,6%
CCCc1cc(C(=O)NC2CCCC2)no1,3%,53%[activator],.,17%,0.3%,-15%,.,-1%
COc1cccc(CNC(=O)C(=O)NCC2OCCCN2S(=O)(=O)c2cc(C)ccc2C)c1 (stereo not given),2%,-23%,-18%,.,.,-10%,?,-8%
Cc1ccc(CC2C(=O)N(c3cc(C)ccc3C)C(=O)C2C)cc1 (stereo not given),-1%,-26%,.,.,.,-21%,.,1%
CCO[C@@H]1OC(C(=O)N2CCCCCCC2)=C[C@H](C2CCCCC2)[C@H]1CCCO,-1%,-14%,.,.,.,2%,.,7%
Cc1ccc(S(=O)(=O)n2nc(OC(=O)C3CCCCC3)cc2N)cc1,-3%,6%,2%,-11%,-1.7%,6%,3%,2%
CC(CN1CCOCC1)OC(=O)c1ccc(C(C)(C)C)cc1 (stereo not given),7%,-23%,.,.,.,-23%,.,-6%
COC(=O)CNC(=O)COC(=O)c1ccc(OC)c([N+](=O)[O-])c1,13%,-5%,29%,15%,0.1%,-4%,14%,23%
COc1ccc(C(=O)Nc2nnc(S(=O)(=O)N(C)Cc3ccccc3)s2)cc1,6%,-7%,.,.,.,4%,.,0%
Cc1ccc2nc(NC(=O)C(NS(=O)(=O)c3cccc4nsnc34)C(C)C)sc2c1 (stereo not given),2%,-20%,.,-2%,0.9%,6%,1%,3%
O=C(OCn1nnc2ccccc2c1=O)c1cccnc1,-14%,3%,0%,6%,4.6%,12%,3%,17%
COC(=O)c1cc(C)cc(=O)o1,1%,-4%,.,.,.,-2%,.,8%
CCOC(=O)CCc1c(C)nc2c(c(C)nn2C(C)(C)C)c1C,-9%,-23%,.,?,-3.5%,-94%,.,-7%
CC(C)(C)OC(=O)N1CCC(c2c(C(=O)NCCc3ccsc3)cnn2-c2ccc(F)cc2F)CC1,.,8%,.,-13%,-5.8%,.,.,.
Cn1nnnc1Sc1ccc(C(=O)O)cc1[N+](=O)[O-],0%,2%,7%,.,.,5%,21%,1%
CC(=O)Nc1cc(-c2nn(C)c(=O)c3ccccc23)ccc1N1CCCCC1,4%,16%,0%,-10%,-0.5%,-1%,5%,-3%[3.69 µM]
Cc1ccc(OCCCN2CCOCC2)c([N+](=O)[O-])c1,-15%,70%[activator],1%,1%,-1.2%,7%,15%,21%
Cc1onc(-c2ccccc2Cl)c1C(=O)N1CCN(c2ccccc2)CC1,-1%,-20%,-36%[14.3 µM],10%,-0.8%,-4%,4%,2%
CCN(CC)c1nc(Oc2ccc(C(=O)OC)cc2)nc(N2CCOCC2)n1,-1%,?,.,.,.,-12%,.,2%
COc1ccc(CN2CCN(Cc3csc(C(C)=O)c3)CC2CCO)c(C)c1C (stereo not given),0%,?,5%[46.1 µM],.,.,2%,?,-11%
Cc1ccc(S(=O)(=O)Nc2cccc(-c3ccc4nncn4n3)c2)cc1,-1%,17%,?,.,.,.,.,2%
O=[N+]([O-])c1cccc2c1ccc1ncccc12,0%,-4%,18%,.,.,-5%,-2%,41%
O=C(NCCCN1CCCCC1)c1ccc2c(=O)n(CCc3ccccc3)c(=O)[nH]c2c1,-8%,8%,-27%,0%,-5.4%,-4%,?,-7%
CCOC(=O)C1=C(C)NC(C)=C(C(=O)OCC)C1c1cc(N)ccc1OC(F)F,0%,-9%,-5%,21%,-3.6%,?,7%,15%
COc1ccc(CNC(=O)C2CCC(CNS(=O)(=O)c3ccccc3)CC2)cc1 (stereo not given),1%,?,-13%[46.1 µM],.,.,-6%,15%[46.1 µM],1%
Cc1ccc2oc(C(=O)N3CCN(Cc4nccn4C)CC3)c(C)c2c1,-5%,-21%,.,.,.,-1%,.,4%

# By substructure: the entries above with a cyano group (2)
SMILES,SARS PLP yeast,2A StopGo,LASV entry inh,Cruzain noTriton,Cruzain inh Det,NS1 function inh,Marburg entry inh,RE007 growth inh
COC(=O)C1=C(C)OC(N)=C(C#N)C1c1cc(OC)ccc1OC (stereo not given),?,.,14%,8%,-2.0%,-3%,-3%,-6%
CCN(CC)c1nc(-c2ccccn2)nc(-c2ccccc2)c1C#N,12%,?,?,.,.,.,6.3µM*,26%

# Continuation.
SMILES,SARS PLP yeast,2A StopGo,LASV entry inh,Cruzain noTriton,Cruzain inh Det,NS1 function inh,Marburg entry inh,RE007 growth inh
CC1(C)Cc2c(cnn2-c2ccccc2)C(NC(=O)CCc2ccc(=O)[nH]n2)C1 (stereo not given),-2%,-3%,15%,.,.,4%,3%,4%
CC(C)C(=O)Nc1ccc(N2CCCC2)c(Cl)c1,-2%,34%[activator],18%[46.1 µM],.,.,.,?,-1%
COc1cc(COCC(O)CN2CCOCC2)cc(OC)c1OC (stereo not given),2%,-13%,2%,-1%,1.3%,-7%,40%,-4%
O=C(CC(NS(=O)(=O)c1ccc(Cl)cc1)c1ccco1)NCc1ccco1 (stereo not given),0%,18%,-3%,-4%,-0.4%,-4%,?,-5%
COc1ccc2cc(CNc3ccc(C)cc3)c(=O)n(CC(=O)Nc3cccc(C(F)(F)F)c3)c2c1,.,6%,-2%[46.1 µM],?,-3.4%,.,.,.
CCNC(=O)CN(c1ccccc1OC)S(=O)(=O)c1cccs1,5%,3%,-3%,2%,0.1%,16%,11%,3%
Cc1ccccc1N(CC(=O)NCCSCc1ccccc1)S(C)(=O)=O,-1%,-12%,.,.,.,9%,.,-2%
O=c1[nH]c(=O)n(-c2ccccc2)c(O)c1/C=C/C=Nc1ccccc1,3%,-9%,1%,-19%,-7.5%,8%,-11%,-6%
O=C(O)C1CCCN1C(=O)OCc1ccccc1 (stereo not given),2%,.,17%,-9%,2.4%,6%,-9%&-9%,-2%
Cc1ccc(-c2nnc(SCC(=O)Nc3nccs3)n2N)cc1,7%,92%[activator],-2%,-9%,-3.8%,6%,4%,1%
COc1ccc(N2CCN(C(=O)c3cc4c(-c5ccc(Cl)cc5)nn(C)c4s3)CC2)cc1,3%,-29%,.,-22%,-5.2%,-16%,-8%,3%
COc1cc(NC(=O)CN(C)S(=O)(=O)c2ccc3c(c2)CCC(=O)N3)cc(OC)c1,0%,-11%,.,-5%,3.5%,-2%,0%,4%
COc1cccc(C2C=C(Nc3ccccc3)C(=O)N2c2ccccc2)c1 (stereo not given),6%,-1%,-1%,?,-8.3%,?,-6%,2%
O=C(Nc1ccccc1)N1CC=C(c2ccc(F)cc2)CC1,-22%,1%,-27%,?,-1.1%,-31%,?,-18%
O=C(CC1(O)C(=O)N(Cc2cccc3ccccc23)c2ccccc21)c1cccnc1 (stereo not given),-8%,-10%,?,?,-5.0%,-4%,-25%,-4%

# Profiles from above.
# Entry for `COc1cc(NC(=O)CN(C)S(=O)(=O)c2ccc3c(c2)CCC(=O)N3)cc(OC)c1` → SARS PLP yeast: 0%; 2A StopGo: -11%; LASV entry inh: .; Cruzain noTriton: -5%; Cruzain inh Det: 3.5%; NS1 function inh: -2%; Marburg entry inh: 0%; RE007 growth inh: 4%
# Entry for `COc1cccc(C2C=C(Nc3ccccc3)C(=O)N2c2ccccc2)c1` (stereo not given) → SARS PLP yeast: 6%; 2A StopGo: -1%; LASV entry inh: -1%; Cruzain noTriton: ?; Cruzain inh Det: -8.3%; NS1 function inh: ?; Marburg entry inh: -6%; RE007 growth inh: 2%
# Entry for `O=C(Nc1ccccc1)N1CC=C(c2ccc(F)cc2)CC1` → SARS PLP yeast: -22%; 2A StopGo: 1%; LASV entry inh: -27%; Cruzain noTriton: ?; Cruzain inh Det: -1.1%; NS1 function inh: -31%; Marburg entry inh: ?; RE007 growth inh: -18%

# Source: PubChem BioAssay
